BJeLR viability = BJeLR cell viability loss; inhibition, % (no concentration beside the values); BJeLR (HRASV12) viability, CellTiter-Glo ATP luminescence, 48 h; reference of the scale not given here; actives 0.17% (n = 300,000);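 active means replicate mean above 50%; inconclusive means above 50% but judged a plate artefact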;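 further: 50 nL library stock added to about 25 µL; numbers are from one replicate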
Mtb hypoxia rep = inhibitors of hypoxia-regulated fluorescent reporter in Mycobacterium tuberculosis. actives 0.1% (n = 300,000). AID 1159583. fluorescence inhibition, % (concentration not given with the values). M. tuberculosis hypoxia-regulated fluorescent reporter, fluorescence;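 active means 35 to 45% if threefold the growth effect, above 45% if 1.5-fold the growth effect; inactive means the rest, general growth blockers included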;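 further: wells of about 50 µL received 100 nL stock; 0% = vehicle wells and 100% = reference inhibitor wells; whole bacteria with a GFP reporter of the hypoxia response; strong numbers were not always called active; many hits fall short of the cut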
Autofluor counter = compound fluorescence in toxin protease inhibitor counterscreen; compound autofluorescence counterscreen, microsphere flow cytometry; active compounds read high; fluorescence intensity (test concentration not listed); actives 3.1% (n = 360,000); AID 624483;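 active means at least 3 SD above the mean of all compounds, about 16000 in these data; inconclusive means too few beads counted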;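 further: 100 nL of 1 mM stock went into each well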
Sa ugtP lethal = kills S. aureus RN4220 lacking UgtP | S. aureus RN4220 ugtP deletion, OD600 growth, 16 h; some inactives read as strong as hits | growth inhibition, % (no concentration beside the values) | actives 0.54% (n = 330,000) | AID 1259309;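 active means z-score under -3 and OD600 up to 0.15 on both plates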;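 further: plate controls were untreated wells for no effect and antibiotic for full effect; wells of about 80 µL received 100 nL stock; the first replicate is given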
RN4220 kill = kills Staphylococcus aureus RN4220; inhibition, % (test concentration not listed); S. aureus RN4220 growth, OD600, 16 h; AID 1259311; actives 0.33% (n = 330,000);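 active means z-score of -3 or lower and OD600 up to 0.18 on both plates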;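 further: plate controls were untreated cells for no effect and reference antibiotic for full effect; stock transfer was 100 nL into about 80 µL; one replicate is shown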
PrP 5UTR inh = suppresses PrP 5' UTR mRNA reporter expression | cell-based PrP 5' UTR mRNA reporter, plate reader | inhibition, % (concentration not given with the values) | actives 0.35% (n = 340,000) | AID 488862;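 active means every replicate at 50% or more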;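 further: 0 = median of the neutral control wells; tested in H4 reporter cells; numbers are from one replicate; inactives centre near -14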
Mtb hypoxia rep growth = further read-out of Mtb hypoxia rep, marked with its call; growth inhibition, %; measured here: M. tuberculosis growth (absorbance);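 0% = vehicle and 100% = reference antibiotic; read after six days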
* = called active by the depositor; ? = inconclusive; . = not tested or not shown. Hits appear at their usual frequency; about 4% have a hit in one of these screens.

Molecule,BJeLR viability,Mtb hypoxia rep,Mtb hypoxia rep growth,Autofluor counter,Sa ugtP lethal,RN4220 kill,PrP 5UTR inh
O=C(CCNS(=O)(=O)c1ccccc1)Nc1ccccc1,4,17,9,3488,1,5.3,-43
CCOc1ccc(/C(O)=C2/C(=O)C(=O)N(CCOCCO)C2c2cccnc2)cc1 (stereo not drawn),3,.,.,3372,.,.,-18
COc1cccc(NC(=O)CNS(=O)(=O)c2ccc(Cl)cc2)c1,-3,5,-13,2365,-4,3.5,-49
O=C(NCCCN1CCOCC1)c1c(O)c2cc(Br)cc(Br)c2[nH]c1=O,.,8,14,3694,7,0.2,-4
Nc1c(-c2ccccc2)cnn1-c1cccc(Cl)c1,-2,-8,4,3642,1,8.3,-56
CCOC(=O)C1CCN(C(=O)Nc2ccc3nc(C)c(C)nc3c2)CC1,-2,-2,9,3264,0,0.5,-8
COc1cccc(CNC(=O)Cn2ncc3c(=O)oc4ccccc4c32)c1,0,8,2,4987,2,4.4,-15
CCNc1nc(Oc2ccc(OC)cc2)cc(C(F)(F)F)n1,-2,7,17,2667,17,-1.4,-15
CCn1cc(S(=O)(=O)NCCc2ccc(OC)c(OC)c2)cn1,-8,5,12,5723,2,1.8,6
O=C(CCn1c(=S)oc2ccccc21)NC1CCCCCC1,2,13,8,4606,2,-0.2,-1
CC(C)CC(=O)Nc1c(C(=O)N2CCN(Cc3ccccc3)CC2)oc2ccccc12,1,7,10,3884,13,1.2,-18
N#Cc1c(N)c(C#N)c(-c2ccc(O)cc2)c2c1CCCC2,-6,.,.,2408,24,-0.4,-9
Cc1ccc(NC(=S)NNC(=O)c2cn(C)nc2C)cc1,7,.,.,3232,3,1.1,-8
O=C(CN1CCN(c2ccccc2O)CC1)Nc1ccc(S(=O)(=O)N2CCCCCC2)cc1,.,0,-6,4389,11,7.0,-12
O=C(c1cc(-c2cccnc2)nc2ccc(Cl)cc12)N1CCN(S(=O)(=O)c2cccs2)CC1,-1,6,3,6003,-1,-2.5,-10
O=c1c2c3c(sc2n2cnnc2n1-c1ccccc1)N(Cc1ccccc1)CCC3,-7,3,-2,.,2,1.7,.
CCOc1ccc(NC(=O)CCC(=O)NNC(=O)Nc2ccc(Cl)cc2)cc1,-8,9,-5,4714,7,1.9,-14
COc1cccc(NC(=S)N(CCCN2CCCC2)Cc2ccco2)c1,3,6,6,4099,9,4.3,-26
Cc1noc(C)c1CSc1nnc(-c2c[nH]c3ccccc23)n1-c1ccc(Cl)cc1,4,.,.,4910,5,5.9,-18
OCCSc1nncn1N=Cc1c[nH]c2ccccc12,.,-11,0,.,-2,4.1,.
COC(=O)c1ccccc1NC(=O)Cn1nc(C(F)(F)F)c2c1CCC2,-1,8,5,?,-15,13,-5
CCN(CC)CCCN=Cc1c(O)n(-c2cccc(C)c2)c(=O)c2ccccc12,-7,1,-4,.,0,2.9,.
COc1ccc(OC)c2nc3c(cc12)CCC3,-3,.,.,3363,10,1.1,-12
CCOc1ccc2nc(Cl)sc2c1,.,13,8,3348,9,13,-16
CC(C)(C)OC(=O)NN=Cc1ccc[nH]1,.,7,12,.,-2,4.1,.

Fetched one by one from above (two):
Molecule,BJeLR viability,Mtb hypoxia rep,Mtb hypoxia rep growth,Autofluor counter,Sa ugtP lethal,RN4220 kill,PrP 5UTR inh
CCn1cc(S(=O)(=O)NCCc2ccc(OC)c(OC)c2)cn1,-8,5,12,5723,2,1.8,6
OCCSc1nncn1N=Cc1c[nH]c2ccccc12,.,-11,0,.,-2,4.1,.

(next part)
Molecule,BJeLR viability,Mtb hypoxia rep,Mtb hypoxia rep growth,Autofluor counter,Sa ugtP lethal,RN4220 kill,PrP 5UTR inh
COc1cccc(NC(=O)Nc2nnc(CC(=O)Nc3ccccc3)s2)c1,14,-1,4,6307,10,1.0,2
CC(C)=CCc1cc([C@@H]2CC(=O)c3ccc(O)c(CC=C(C)C)c3O2)ccc1O,0,.,.,5268,37,-13,-22
COCCN(CCOC)S(=O)(=O)c1ccc(OC)cc1,-6,.,.,4327,-6,-3.4,-13
O=C(CS(=O)(=O)c1ccc2ccccc2c1)N1CCCCCC1,-2,8,10,4183,2,3.4,-12
O=C1OC(c2ccccc2)(c2cc(Br)c(O)c(Br)c2)c2ccccc21 (stereo not drawn),.,4,1,3938,66,30,-12
COc1cc(C)c(Cl)c(C)c1S(=O)(=O)NCc1cccnc1,0,8,2,.,7,3.8,-28
COc1ccc(CN(CCNC(=O)CCCCC(=O)NCCN(Cc2ccc(OC)cc2)C(C)C)C(C)C)cc1,-3,5,8,4639,2,-0.5,-22
N/C(=N\OC(=O)COc1ccc(Br)cc1Cl)c1ccncc1,.,2,-1,1942,-4,-5.0,-107
N#Cc1ccccc1/C=C/C(=O)N1CCOCC1,7,9,22,4117,1,0.8,-11
COc1ccc(-n2c(Cc3cccn3C)nnc2SCC(=O)Nc2ccc3c(c2)OCO3)cc1,-9,.,.,5239,6,-1.6,-1
Cc1ccc(-c2c(C(=O)N/N=C/c3ccc(C)o3)nnn2-c2nonc2N)cc1,-15,.,.,4679,.,.,-11
NS(=O)(=O)c1ccc(NC(=O)COC(=O)C23CC4CC(CC(C4)C2)C3)cc1,18,9,6,2108,15,5.0,-16
CN(c1ccccc1)S(=O)(=O)c1cccc(NS(=O)(=O)c2cccc(C(=O)O)c2)c1,.,2,-8,3126,-6,-2.6,3
Cn1c(=O)c2c(nc(NN=Cc3ccco3)n2C)n(C)c1=O,.,2,-5,.,-1,0.6,.
COc1ccc(NC(=O)CC(C)=O)c(OC)c1,13,.,.,3691,.,.,-23
CC(OC(=O)c1ccco1)C(=O)NCc1cccs1 (stereo not drawn),-1,17,-1,3200,2,1.0,-16
CCOc1ccccc1NC1=C(Cl)C(=O)N(Cc2ccccc2)C1=O,38,.,.,3357,33,2.6,-8
COc1cc(/C=C/C(=O)OCC(=O)c2ccc(OC(F)F)cc2)ccc1O,.,-16,3,4019,-26,2.6,-39
COc1ccccc1C(=O)NCCC(=O)NCCC12CC3CC(CC(C3)C1)C2,-10,7,7,5886,3,3.2,-6
COC(=O)C1CCCCN1C(=O)c1cccc(OC2CCN(C(=O)C3CC3)CC2)c1 (stereo not drawn),6,10,0,5550,11,0.1,-10
Cc1ccc(S(=O)(=O)NC(=O)Nc2nccs2)cc1,-1,-4,8,2961,-2,-2.2,-2
CCOC(=O)C1=C(C)Nc2nc(C)nn2C1c1ccc(C)cc1 (stereo not drawn),-2,.,.,4745,2,0.2,-7
CCOc1cc(/C=N/NC(=O)c2nn(C)cc2Br)ccc1OCc1ccccc1,1,.,.,2238,.,.,-12
O=S(=O)(c1ccccc1)N(F)S(=O)(=O)c1ccccc1,.,9,2,?,5,6.4,.
NC1=CC(=O)C(=O)c2ccccc21,.,-9,7,3448,-8,10,-26
CCn1c(SCC(=O)Nc2nc(C)c(C)s2)nc2cccnc21,-4,.,.,3623,8,-1.5,-7
COc1ccc(-n2ncc3c2CC(C)(C)CC3NC(=O)c2ccc(OC)o2)cc1 (stereo not drawn),11,-2,0,5796,6,5.9,-8
Brc1ccc(C=Nc2nc3ccccc3n2CCN2CCOCC2)cc1,.,5,-6,.,12,1.4,.
O=S(=O)(Nc1ccccc1N1CCCCC1)c1ccc(Cl)s1,-7,19,12,3253,-6,4.0,-7
COCCC(=O)Nc1ccc2c(c1)CN(C(=O)CSC)CC2,-6,1,-6,3532,5,12,-17
O=C(O)CSc1nc2ccccc2s1,-5,10,10,4781,-4,5.0,-32
Cc1nnc(NN=Cc2cc(C)n(-c3ccc(F)cc3)c2C)n1N,.,.,.,.,6,11,.
O=C(NC(=S)N1CCOCC1)c1cn(-c2ccccc2)nc1-c1ccccc1,.,0,2,4117,6,0.6,5
CC(OC(=O)c1cc2sccc2n1C)C(=O)NCc1ccco1 (stereo not drawn),-7,-1,-13,7349,-1,1.0,-22
CNC(=O)c1ccc(-c2cc3onc(-c4ccccc4)c3c(=O)n2C)cc1,.,17,10,4015,4,4.8,-45
COc1cccc(OCCn2cc(C=NNC(=O)c3ccncc3)c3ccccc32)c1,.,13,2,.,-3,0.3,.
Cn1cnnc1Sc1cc(N2CCNCC2)ccc1[N+](=O)[O-],2,2,1,4033,4,1.0,4
CN(C)c1ccc(C=NNC(=O)COc2ccccc2)cc1,.,0,4,.,-1,3.1,.
OC[C@H]1O[C@@H](n2cnc3c(Nc4ccccc4)ncnc32)[C@H](O)[C@@H]1O,0,.,.,5648,.,.,-28
O=C(CCc1ccccc1)NNC(=O)COc1ccc([N+](=O)[O-])cc1,-8,7,6,6054,1,-0.2,-14
CN(C)Cc1c(C(=O)N/N=C/c2cccnc2)nnn1-c1nonc1N,-6,.,.,5304,.,.,-28
NS(=O)(=O)c1cccc(NC(=O)COC(=O)c2ccc(S(=O)(=O)N3CCOCC3)cc2)c1,.,12*,56*,8708,0,1.7,4
O=C(c1cccc(S(=O)(=O)N2CCOCC2)c1)N1CCN(Cc2ccc3c(c2)OCO3)CC1,6,-3,8,4656,2,11,-5
N#CCn1cnc2sc(-c3ccccc3)cc2c1=O,-13,-3,-5,4217,1,6.4,-34
Nc1nc(SCC(=O)NCc2ccccc2Cl)[nH]c(=O)c1NC(=O)c1ccccc1F,-12,2,2,1949,6,-6.1,1
Cc1oc2cc3oc(=O)c(CCC(=O)NCCN4CCOCC4)c(C)c3cc2c1C,-12,.,.,3896,6,1.6,-5
C=CCNC(=O)C(=Cc1cn(-c2ccccc2)nc1-c1cccc([N+](=O)[O-])c1)NC(=O)c1ccccc1,.,-13,-13,.,-7,4.4,.
CCc1nc(Nc2ccc3c(c2)OCO3)c2oc3ccccc3c2n1,-4,.,.,9382,.,.,-12
CCS(=O)(=O)c1nc(S(=O)(=O)c2ccc(C)cc2)c(N2CCC3(CC2)OCCO3)s1,0,-6,-5,3295,1,-1.0,-15
O=C(NCC1CC1)C1(C(F)(F)F)C/C(=C\Cc2ccccc2)CCCO1 (stereo not drawn),-4,.,.,2803,.,.,-3

Continuation:
Molecule,BJeLR viability,Mtb hypoxia rep,Mtb hypoxia rep growth,Autofluor counter,Sa ugtP lethal,RN4220 kill,PrP 5UTR inh
CN(CC(=O)NCc1ccc2c(c1)OCO2)S(=O)(=O)c1ccc(F)cc1,3,-2,6,3688,14,0.5,-8
C[C@]12CCC3C(CC=C4C[C@@H](O)CC[C@@]43C)C1CCC2[C@]1(C)CCC(=O)O1 (stereo partly drawn),10,5,2,8662,5,10,-19
COc1ccc(CNC(=O)CCCC(=O)Nc2cccc(Br)c2)cc1,4,11,13,5241,15,2.6,-7
O=C(COc1ncnc2cc([N+](=O)[O-])ccc12)NC1CCCCC1,-4,-10,7,5301,10,-1.2,-19
CC(=O)Nc1nonc1-c1nc2ccccc2n1CC1CC1,10,.,.,3251,11,5.3,10
O=C(NCC1(c2ccccc2)CCCC1)c1ccccc1,13,10,20,2555,-5,3.4,-12
COc1cc(CNn2cn[nH]c2=S)cc(Cl)c1OCc1ccc(F)cc1,15,5,9,2466,9,7.0,-10
COc1ccccc1C(=O)NC(=S)Nc1cccc2cc(O)ccc12,-6,-6,-5,4169,-18,-3.7,-1
O=c1onc(-c2ccc(Cl)cc2Cl)n1-c1cccnc1,-10,17,3,4363,3,2.7,-20
Cc1c2ccccc2cc[n+]1CCCS(=O)(=O)[O-],0,5,-1,2477,0,3.6,-11
Cc1ccc(C2C(=O)NC(=O)NC2=O)cc1,-3,4,2,2834,3,1.6,-5
CCn1c(SCC(=O)NCCCN2CCCC2=O)nnc1-c1cccc(C)c1,.,3,-4,4169,9,4.5,-17
O=C(NN=Cc1ccccn1)c1ccc2nc[nH]c2c1,.,3,13,.,4,3.4,.
COc1ccc(-c2nnc(OCc3ccccc3)c3ccccc23)cc1,3,1,2,8117,12,7.9,-7
Cc1cc(C)n2cc(CSc3ncccc3C(=O)O)nc2n1,6,2,9,3157,-5,-2.1,-10
O=C(O)/C=C/C(=O)N1CCN(C(=O)/C=C/C(=O)O)CC1,0,3,0,7226,1,-2.7,-31
CC(=O)N1N=C(c2ccco2)CC1c1ccc(Br)cc1 (stereo not drawn),9,7,3,9226,3,8.7,-34
